# Assay outcomes as filed in PubChem BioAssay.
# CtBP-E1A inh: qHTS Assay for Inhibitors of the CtBP/E1A Interaction; activity change, % (concentration not given with the values); CtBP / adenovirus E1A interaction (AlphaScreen); AlphaScreen GST-E1A/His-CtBP binding, 1536-well; hits give low values; control for the full effect not named in the record; 340,000 tested, 0.49% active; in the data active means activity change below about -65%; inconclusive means about -30% to -65%; inactive means above about -30%; note: % is set by controls: 0 for no effect and ±100 for the full control effect
#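 In 5 uL wells, 23 nL compound meets equimolar GST-E1A and His-CtBP (5X stock 125 nM each) for 2 h, 37 °C. Beads (5X, 50 ug/mL) then 1 h, 37 °C, dark.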
# TRPML1 agonist: qHTS for Agonists of the Human Mucolipin Transient Receptor Potential 1 (TRPML1); AID 624414, 2012; 410,000 tested, 0.12% active; TRPML1-expressing cells, Ca2+ dye fluorescence, FDSS; host cell line not named in the record; reference of the full effect not given here; Mucolipin-1 (Homo sapiens), Q9GZU1; activation, % (no concentration beside the values); in the data active = activation above about 50%; inconclusive = about 30% to 50%; inactive = below about 30%; note: 0% is about no effect; the text of the record puts the active cut at 80%
# Target sequence (Q9GZU1 whole entry, looked up): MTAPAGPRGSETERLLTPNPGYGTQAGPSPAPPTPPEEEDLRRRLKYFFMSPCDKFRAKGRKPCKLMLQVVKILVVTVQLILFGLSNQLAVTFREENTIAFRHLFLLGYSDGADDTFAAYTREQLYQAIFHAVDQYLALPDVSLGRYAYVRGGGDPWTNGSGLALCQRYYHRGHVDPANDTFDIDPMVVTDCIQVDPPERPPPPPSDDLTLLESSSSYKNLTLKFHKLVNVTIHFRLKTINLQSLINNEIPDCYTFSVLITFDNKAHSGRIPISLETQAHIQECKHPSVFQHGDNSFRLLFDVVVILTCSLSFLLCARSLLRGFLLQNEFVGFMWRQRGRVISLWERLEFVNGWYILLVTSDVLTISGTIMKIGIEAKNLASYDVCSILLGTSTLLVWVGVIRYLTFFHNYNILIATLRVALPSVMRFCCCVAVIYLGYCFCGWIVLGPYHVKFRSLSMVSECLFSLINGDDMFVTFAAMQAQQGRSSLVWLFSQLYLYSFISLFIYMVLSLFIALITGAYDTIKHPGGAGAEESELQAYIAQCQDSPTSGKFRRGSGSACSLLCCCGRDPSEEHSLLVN
#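 Kinetic FDSS Ca2+ read in Tet-induced TRPML1-DL cells (ABD Ca8 dye plus quencher, 45-90 min RT loading): baseline, then compound, then 110 s agonist window; EC80 agonist 54-4 at 4uM final added afterwards for a 110 s antagonist window.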
# D2 ag: Beta-Arrestin HTS for Positive Allosteric Modulators of the Human D2 Dopamine Receptor: Agonists | D(2) dopamine receptor (Homo sapiens), P14416 | 360,000 tested, 0.084% active | activation, % (no concentration beside the values) | DiscoveRx PathHunter D2 beta-arrestin, luminescence, 90 min; 100% = 57 uM dopamine signal; in the data active = activation above about 40%; inconclusive = about 15% to 40%; inactive = below about 15%; note: compound concentration not given in the record; the text of the record calls up to 30% inactive
# Target sequence (P14416 whole entry, looked up): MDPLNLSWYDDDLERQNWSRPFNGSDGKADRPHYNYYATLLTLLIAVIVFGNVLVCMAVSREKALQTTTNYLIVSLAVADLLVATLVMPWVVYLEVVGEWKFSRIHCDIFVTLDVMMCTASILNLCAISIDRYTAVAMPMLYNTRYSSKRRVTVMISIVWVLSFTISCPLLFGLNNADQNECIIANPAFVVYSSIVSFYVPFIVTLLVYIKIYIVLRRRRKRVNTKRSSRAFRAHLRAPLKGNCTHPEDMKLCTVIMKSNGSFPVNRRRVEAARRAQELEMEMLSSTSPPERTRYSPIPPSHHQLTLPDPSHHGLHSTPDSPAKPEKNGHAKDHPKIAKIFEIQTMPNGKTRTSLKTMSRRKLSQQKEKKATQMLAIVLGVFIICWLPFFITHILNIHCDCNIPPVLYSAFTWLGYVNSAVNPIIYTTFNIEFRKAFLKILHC
#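 DiscoveRx PathHunter D2 beta-arrestin cells (2,100/well) attached overnight, then compound-stimulated 90 min at 37 C in HBSS/10 mM HEPES/0.1% Tween-20 buffer; beta-galactosidase complementation read by luminescence after 1 h at ambient temperature. Dopamine 57 uM final (EC100) as control.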
# Six1-Eya2 inh: qHTS Assay for Inhibitors of the Six1/Eya2 Interaction | Homeobox protein SIX1 (Homo sapiens) + Protein phosphatase EYA2 (Homo sapiens), … | AlphaScreen GST-Six1/His-Eya2 binding, biochemical; hits give low values; control for the full effect not named in the record | activity change, % (concentration not given with the values) | 360,000 tested, 0.56% active | AID 651725, 2012; in the data active = activity change below about -65%; inconclusive = about -30% to -65%; inactive = above about -30%; note: % is set by controls: 0 for no effect and ±100 for the full control effect
#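 AlphaScreen with GST-Six1 and His-Eya2 (5X mix: 250 nM and 500 nM), glutathione donor and nickel acceptor beads; buffer 50 mM Tris pH 8.0, 300 mM NaCl, 1 mM TCEP; 1 h at 37 C in the dark.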
# D2 PAM: Beta-Arrestin HTS for Positive Allosteric Modulators of the Human D2 Dopamine Receptor: Potentiators. DiscoveRx D2 beta-arrestin cells, luminescence, 90 min; 100% = 57 uM dopamine signal. AID 624464, 2012. 360,000 tested, 0.23% active. potentiation, % (no concentration beside the values); active = potentiation of 50% or more; inconclusive = 30% to 50%; inactive = 30% or less;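 note: compound concentration not given in the record; tested on top of an EC20 dose of dopamine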
#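 PathHunter D2 cells, attached overnight at 37 deg C, received compound in DMSO plus dopamine at EC20 (50 nM final) for 90 min at 37 deg C. Beta-arrestin recruitment was read as luminescence after 1 h with detection reagent at ambient temperature.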
# PINK1 modulator: A Quantitative High throughput Screen to Identify Chemical Modulators of PINK1 Expression; PINK1 immunofluorescence, high-content cytometry, 24 h; Potency, µM (titrated, usually from 76.6 µM), without a hit: at the top dose activation (PINK1 increase), usual class: activators; AID 624263, 2012; 410,000 tested, 0.2% active; active = well fitted activation curve with a large enough effect; inconclusive = small, poorly fitted or top-dose-only effect; inactive = flat fitted curve, though single readings scatter; cell line not stated here;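 note: potency is the fitted concentration of half-maximal effect; % of control where 0% means no effect; nearly all actives have a fitted effect of over 65% in size; a mitochondrial uncoupler was the plate control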
#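 A stable cell line was treated with compounds at 5 concentrations for 24 hours, with CCCP as control. PINK1 levels and mitochondrial localization were measured by immunofluorescence with mitochondrial, cell and nuclear markers after fixation, read by laser-scanning cytometry.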
# Starred values were filed as active, the others as inactive; ? = inconclusive; . = no result given; & = joins results of further samples; [ ] = another dose, or the depositor's remark.
# Below each SMILES: TRPML1 agonist, D2 PAM, PINK1 modulator, CtBP-E1A inh, Six1-Eya2 inh, D2 ag
- COc1ccc(-c2cc(C(=O)Nc3cc(C)nn3-c3ccccc3)no2)cc1OC
    -1.3, -7, 9.4%&0.6%, -13, 1, -3.8
- Cc1ccnc(NC(=O)COC(=O)c2ccc(F)cc2F)n1
    -1.2, -6, 3.0%, 4, 0, 1.2
- Cc1ccc(Cn2nc(C)c(C(=O)NCC(c3cccs3)N3CCOCC3)c2Cl)cc1 (stereo unspecified)
    0.1, -1, 1.4%, 3, -4, -0.6
- Cc1cccnc1NC(=O)c1ccccc1NC(=O)C(C)(C)C
    0.2, 2, -0.7%, 5, 11, -0.2
- C=COCCNC(=S)N1CCOCCOCCN(C(=S)NCCOC=C)CCOCC1
    1.4, -9, 1.1%, -12, 6, 0.7
- Cc1ccc2nc(NC(=O)CN(C)S(=O)(=O)c3ccc(Br)s3)sc2c1
    2.1, 5, 17%, -4, 8, 7.0
- CC(C)OC(=O)CSc1nc(N)c(C#N)c(-c2cccs2)c1C#N
    0.2, -12, ?, 11, -1, -2.3
- O=CN1CCN(C(=O)CC(c2ccccc2)c2cc(Br)ccc2O)CC1 (stereo unspecified)
    0.2, 13, 3.2%, -21, -11, -4.4
- CCN(CC(=O)Nc1c(F)cccc1F)C(=O)c1cc([N+](=O)[O-])ccc1N1CCOCC1
    -1.0, -16, -0.4%, 1, -2, -0.3
- COc1ccc(/C(C)=N/NC(=O)c2ccccc2OCc2ccccc2)c(OC)c1
    3.8, -9, -0.1%, -1, 5, 0.1
- Cn1cnnc1-c1cccc(NS(=O)(=O)c2ccc(N3CCCC3=O)cc2)c1
    -0.3, -14, 14%[38.3 µM], 9, 0, -0.5
- COc1ccc(NC(=O)CSc2nnc(-c3cccc(O)c3)o2)cc1
    -0.4, -2, 2.7%, 0, -15, -0.8
- CCOC(=O)[C@@H]1[C@H]2COc3cc(OC)ccc3[C@@H]2N2C(=O)N(c3ccccc3)C(=O)[C@]12C
    1.6, -15, -0.6%, -10, 2, -3.5
- C/C(=N\Nc1ccc(Cl)c(C(=O)O)c1)c1ccc[nH]1
    0.8, 10, 1.1%, 6, -23, 10
- COc1ccccc1N(C(=O)c1ccco1)C(C(=O)NC1CCCC1)c1ccc(N2CCOCC2)cc1 (stereo unspecified)
    2.4, -9, -0.2%, 2, 2, 2.2
- Cc1nn(CC#N)c(=O)n1-c1ccc(C(C)C)cc1
    0.3, 0, 3.2%, -2, -3, 2.7
- CCOC(=O)C1=C(C)N=c2s/c(=C\c3ccncc3)c(=O)n2C1c1ccc2c(c1)OCO2 (stereo unspecified)
    0.0, 9, 2.5%, 1, -11, 3.2
- CCOCCn1c(=O)c2c(nc3n2CCCN3CCc2ccccc2)n(C)c1=O
    -0.3, -11, -0.6%, 0, -18, 1.0
- Cc1cc(C)nc(NN=CC2=C(N3CCOCC3)/C(=C/c3ccc(Cl)cc3)CC2)n1
    -0.5, -2, 8.6%, -7, -2, 0.9
- CCNC(=O)C(=O)NCC1CCCN1S(=O)(=O)c1cccs1 (stereo unspecified)
    -0.6, 3, 0.3%, 1, 3, 2.3
- CCCN1Cc2cccc(C(=O)NC(CC(=O)OCC)c3ccc(C)cc3)c2C1=O (stereo unspecified)
    -1.0, -3, 2.7%, 6, -2, -2.7
- O=C(N/C(=C\c1ccc([N+](=O)[O-])cc1)C(=O)N1CCCCC1)c1ccc(Br)o1
    0.7, -4, 0.1%, 7, -4, -4.9
- CCOC(=O)/C=C1\CC(C(=O)OCC)Oc2c(OC)cccc21 (stereo unspecified)
    -0.6&-0.2, ., -0.9%&0.0%, -2, 2, -1.8
- CCOc1cc(C(=O)NCc2ccccc2)ccc1OCC(=O)N1CCCCC1
    -0.2, -19, 2.3%, ., 5, -1.7
- O=S(=O)(c1cccc(-c2nnc(-c3ccc(Br)cc3)o2)c1)N1CCCCCC1
    -0.6, -21, ., 3, -1, -1.7
- CC(=O)Nc1sc2c(c1C#N)CCC2
    -0.7, 1, 1.7%, 4, 3, -0.3
- COC(=O)c1ccc(COc2ccc(C#N)cc2)o1
    -0.4, 0, -0.5%, 6, 0, 4.3
- Cc1oc2c(C)c(O)ccc2c(=O)c1-c1ccc2ccccc2n1
    5.7, -15, ?, 4, 3, -2.7
- N=C1c2ccccc2CN1NC(=O)CC12CC3CC(CC(C3)C1)C2
    -1.4, 11, 6.3%, -21, -24, -5.8
- COC(=O)Nc1ccc(S(=O)(=O)Nc2ccc(O)cc2)cc1
    0.2, 19, ., 10, 8, 4.4
- O=C(CSc1nnc(-c2ccncc2)n1Cc1ccccc1)Nc1nccs1
    0.3, -7, -2.2%, -2, 2, -4.1
- CC(C)CCn1c(COc2ccccc2)nn(CCC#N)c1=S
    4.0, -4, 0.4%, 9, 6, 6.2
- Nc1cc(Cl)ccc1Nc1ccncc1
    0.3, -21, -0.4%, 1, 0, 11
- CCN(CC)C(=O)COc1ccc2c(-c3ccccc3)cc(=O)oc2c1
    0.3, -3, 0.9%, -15, 4, -1.8
- CCN(c1ccc(NC(=O)COC(=O)/C=C/c2ccco2)cc1)C(C)C
    1.3, -21, 2.8%, -3, ?, -4.3
- Cc1ccc(Cl)cc1NC(=S)Nn1cnnc1
    -0.1, -37, 0.8%, 1, -2, -3.6
- CCOC(=O)C1CCN(Cc2ccccc2C)CC1
    0.9, -19, ., 9, -1, -0.5
- COc1ccc(CC(=O)Nc2c3c(nn2-c2cccc(C)c2C)CS(=O)C3)cc1OC (stereo unspecified)
    1.0, 2, -0.8%, -3, -4, -0.4
- CC(=O)Nc1ccc(C(=S)NCCCO)cc1
    -0.2, -20, 1.7%, 0, ?, -7.1
- Cc1sc2nc(SCC(=O)NCCOCCO)n(C)c(=O)c2c1C
    0.0, 2, -1.7%, -1, 6, -0.8
- CCC(C)c1ccc(S(=O)(=O)N2CC(=O)Nc3ccccc32)cc1 (stereo unspecified)
    0.4, -6, 2.3%, 6, 4, 0.3
- CC1CCN(C(=O)C2CCN(S(=O)(=O)c3ccc4c(c3)CC(C)N4C(=O)C3CC3)CC2)CC1 (stereo unspecified)
    0.8, -1, 0.3%, -7, 2, -4.1
- O=C(COC(=O)/C=C/c1cccc(Br)c1)NC1CCCCC1
    -0.6, 7, 1.2%, ., 0, -1.2
- O=C(NCC1CCCO1)c1ccc2c(=O)n(CCc3ccccc3)c(=O)[nH]c2c1 (stereo unspecified)
    -0.3, 20, 7.0%, 10, 2, -1.9
- COc1cc(N)c(Cl)cc1C(=O)OCC(=O)NCC1CCCO1 (stereo unspecified)
    0.3, -23, -0.1%, 0, 15, -2.6
- O=C(N/N=C/c1cccc2ccccc12)c1cccnc1
    ., -18, 2.8%, -8, -22, -3.2
- Cc1ccc(NS(=O)(=O)c2cc(NC(=O)c3ccc4c(c3)NC(=O)CS4)ccc2Cl)c(C)c1
    2.4, -2, 0.6%, -17, -13, 1.6
- Cc1c(C(C)(C)C)c(C=S)n2ccccc12
    -0.7, -11, 1.8%, 6, -10, -5.5
- CC1=NN(c2ccccc2)C(=O)C1=C(C)C
    -0.1, -8, -0.1%, ., -1, -2.2
- O=C(O)c1ccccc1CSC1=NCCS1
    0.8, -13, 0.4%, ., 2, -5.3
- COc1ccc(CN(C(=O)c2cc3ccccc3oc2=O)C2CCS(=O)(=O)C2)cc1 (stereo unspecified)
    0.1&-0.9, -2, 1.9%&-0.7%, 5, -7, -0.7
- CSc1ccc(Cn2c(C)c(C(=O)NCc3cccc(C)c3)sc2=O)cc1
    0.5, -4, -0.6%, ?, -5, -1.9
- Cc1ccc(OCC(=O)NC2=NCCS2)cc1
    0.3, 15, 0.0%, -9, -1, -0.8
- CC(=O)Nc1ccc(C(=O)NCCc2ccccc2)cc1
    -0.5, -11, 1.5%, 5, 11, -5.3
- O=C(c1cc(C2CC2)on1)N1CCN(c2ccccc2)CC1
    0.0, -3, 1.0%, 4, -2, -2.7
- Cc1cc(C(=O)OCC(=O)Nc2ccc(F)cc2)c(C)o1
    -0.2, 4, 0.1%, 0, -2, -0.9
- CCNC(=O)C1CCCN(c2nc(C)cc(C)n2)C1 (stereo unspecified)
    1.6, -10, -1.4%, 3, 9, 6.1
- O=S(=O)(c1cccnc1)N1CCCC(Nc2ccc(F)c(F)c2)C1 (stereo unspecified)
    0.0, -23, 2.2%, -1, -2, -4.2
- C[C@@H]1CN([C@H](C)CO)C(=O)CCCn2nncc2CO[C@@H]1CN(C)C(=O)Cc1ccccc1
    0.5, 7, 2.3%, 4, -2, -0.4
- CCOC(=O)c1cc(-c2ccccc2)nn1CC1CC(c2ccc(Cl)cc2)=NO1 (stereo unspecified)
    0.6, 1, 4.3%, 3, 4, -1.1

# Additional compounds.
# Below each SMILES: TRPML1 agonist, D2 PAM, PINK1 modulator, CtBP-E1A inh, Six1-Eya2 inh, D2 ag
- Nc1cc(=O)[nH]c(SCC(=O)Nc2ccc(S(=O)(=O)N3CCCC3)cc2)n1
    -0.3, -5, -0.4%, -1, -2, 0.6
- COc1ccc(CC(=O)NCc2cccs2)cc1OC
    -0.4, -5, -0.4%, -2, -5, -2.5
- Cc1cccc(NC(=O)CSc2c3c(nc4ccccc24)CCC3)n1
    -0.2, -6, 7.7%, 2, -5, 0.5
- COCCn1c(=NC(=O)CCS(=O)(=O)c2ccccc2)sc2cc(C(=O)OC)ccc21
    0.2, 3, 4.7%, 6, 11, 5.3
- c1csc(-c2cnc3ccccc3n2)c1
    1.5, -9, -0.4%, 6, 11, -2.8
- Oc1c(Br)cc(Br)cc1CNc1nccs1
    -0.5, -7, 7.2%, ?, -14, -1.9
- CCOC(=O)C1=C(C)NC(=O)NC1c1ccc(Br)o1 (stereo unspecified)
    -0.4, 0, 1.5%, 1, -18, -3.1
- CN(C)S(=O)(=O)c1ccc(N2CCCC2)c(C(=O)Nc2nc3c(ccc4ccccc43)s2)c1
    0.7, 2, -3.7%, -16, -14, 0.3
- CN1C(=O)c2ccc(C(=O)Nc3cccnc3)cc2C1=O
    -0.7, -1, 0.8%, -2, -1, -1.2
- COc1ccc(CNC(=O)c2sc(=O)n(Cc3ccc(-c4ccccc4)cc3)c2C)cc1OC
    0.4, 0, -1.4%, ?, -11, 13
- S=C(NC1CCCCC1)N1CCN(C/C=C/c2ccccc2)CC1
    0.4, -17, 1.8%, 9, -8, -0.4
- Cc1ccc(CNC(=O)CO/N=C/c2ccc3c(c2)OCO3)cc1
    6.9, 0, 0.4%, 11, 5, -3.7
- OC1CCCN(Cc2ccc3ccc4cccc5ccc2c3c45)C1 (stereo unspecified)
    0.9, -34, 17%[38.3 µM], -7, -1, -0.7
- CCN(C(N)=S)c1ccccc1
    0.6, -5, 0.3%, -13, 7, -0.1
